# Bioassay records: PubChem, National Center for Advancing Translational Sciences (NCATS)
# Cruzain Triton: qHTS Assay for Promiscuous and Specific Inhibitors of Cruzain (with detergent). Cruzipain (Trypanosoma cruzi), P25779. purified cruzain, Z-FR-AMC fluorescence, 0.01% Triton. Potency, µM, for the others: max response, negative = inhibition, most hits filed as inhibitors. 200,000 compounds, 0.43% hits. AID 1478, 2009; active = well fitted curve in the direction sought with a large enough effect; inconclusive = small, poorly fitted or top-dose-only effect, or another doubt; inactive = no such curve, though single readings can be large; an effect the other way counts as inactive or inconclusive;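 also: plate controls were neutral wells for no effect and buffer without enzyme for full effect; nearly all actives have a fitted effect of over 40% in size; top concentration of the series not given in the record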
# Target sequence (P25779 123-467 limits assumed): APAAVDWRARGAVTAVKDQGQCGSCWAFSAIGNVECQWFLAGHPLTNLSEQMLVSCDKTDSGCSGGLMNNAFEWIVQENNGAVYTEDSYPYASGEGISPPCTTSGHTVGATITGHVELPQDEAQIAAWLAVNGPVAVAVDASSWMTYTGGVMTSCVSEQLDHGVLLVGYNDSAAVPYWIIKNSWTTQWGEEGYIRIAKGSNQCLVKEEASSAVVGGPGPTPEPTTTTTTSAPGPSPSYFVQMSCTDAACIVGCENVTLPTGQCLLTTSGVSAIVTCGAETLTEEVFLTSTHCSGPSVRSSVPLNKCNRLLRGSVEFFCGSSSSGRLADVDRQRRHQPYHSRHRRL
#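 Cruzain (1.5 nM) preincubated 15 min at RT with compound in 100 mM sodium acetate pH 5.5, 5 mM DTT, 0.01% Triton X-100. Reaction started with 2 uM Z-FR-AMC; AMC fluorescence (ex 360/em 450 nm) change over 60 s gave rate.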
# NS1 inh: qHTS Assay for Inhibitors of Influenza NS1 Protein Function; Potency, µM (series often up to 46.1 µM), inactives show top-dose activity, positive = more growth; 270,000 compounds, 0.4% hits; AID 2326, 2010; S. cerevisiae slowed by influenza A NS1, growth recovery by OD600; also: actives are rising curves; nearly all actives have a fitted effect of over 50% in size
#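 S. cerevisiae expressing influenza A NS1, grown in glucose, washed, then diluted 1:100 into pH 6.0 -URA galactose medium with 23 nl compound. Growth recovery read as OD600; NS1-free strain serves as control.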
# RE007 growth inh: qHTS Assay for Inhibitors of the HIV-1 protein Vpr; S. pombe RE007 Vpr strain, BacTiter-Glo ATP luminescence, 24 h; control for the full effect not named in the record; 360,000 compounds, 0.21% hits; Potency, µM (top dose mostly 92.2 µM), without a hit: top-dose activity change, negative = less growth; AID 651644, 2012; active = well fitted falling curve with a large enough effect; inconclusive = small, poorly fitted or top-dose-only effect; inactive = no such curve, though single readings can be large or run the other way;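 also: % is scaled to controls: 0 for no effect and ±100 for the full control effect; nearly all actives have a fitted effect of over 50% in size; the assay follows cell death caused by Vpr and the record does not say whether a fall means rescue or toxicity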
#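 Fission yeast strain RE007, carrying one chromosomally integrated HIV-1 vpr copy, was seeded at OD 0.01 in PMG+AL medium with 23 nL pinned compound. After 24 h at 30 °C and 99% humidity, viability was read by BacTiter-Glo luminescence.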
# StopGo reporter: High Throughput Screening for Foot and Mouth Disease Virus Antivirals; human cells with a luciferase reporter of 2A StopGo recoding; control for the full effect not named in the record; 410,000 compounds, 1.2% hits; Potency, µM (top dose mostly 57.9 µM), for the others: top-dose signal change, negative = less light; AID 1159524, 2015; active = well fitted falling curve with a large enough effect; inconclusive = small, poorly fitted or top-dose-only effect; inactive = no such curve, though single readings can be large or run the other way; tested in HEK293T cells; also: % is scaled to controls: 0 for no effect and ±100 for the full control effect; nearly all actives have a fitted effect of over 45% in size; luciferase light after 4 h
# SARS PLP yeast: qHTS of Yeast-based Assay for SARS-CoV PLP; S. cerevisiae expressing SARS-CoV PLpro, growth rescue; control for the full effect not named in the record; Potency, µM (doses to about 32.9 µM), for inactives: at the top dose activity, positive = growth rescue; 330,000 compounds, 0.19% hits; AID 485353, 2010; also: 0% is about no effect; nearly all actives have a fitted effect of over 55% in size; growth read by luminescence after 48 h
# LASV entry inh: qHTS for Inhibitors of binding or entry into cells for Lassa Virus | Potency, µM (series often up to 37.9 µM), inactives show at the highest dose activity change, negative = inhibition, most hits filed as inhibitors | Lassa virus pseudotype entry inhibition, cell reporter; control for the full effect not named in the record | 300,000 compounds, 1.2% hits; active means well fitted inhibition curve with a large enough effect; inconclusive means small, poorly fitted or top-dose-only effect, or effect the other way; inactive means flat fitted curve, though single readings scatter; tested in HEK293 cells; also: % is scaled to controls: 0 for no effect and ±100 for the full control effect; nearly all actives have a fitted effect of over 50% in size; luciferase read-out
# Cruzain noTriton: qHTS Assay for Promiscuous and Specific Inhibitors of Cruzain (without detergent) | Cruzipain (Trypanosoma cruzi), P25779 | purified cruzain, Z-FR-AMC fluorescence, no detergent | Potency, µM, for the others: max response, negative = inhibition, most hits filed as inhibitors | 200,000 compounds, 2.3% hits | AID 1476, 2009; active = well fitted curve in the direction sought with a large enough effect; inconclusive = small, poorly fitted or top-dose-only effect, or another doubt; inactive = no such curve, though single readings can be large; an effect the other way counts as inactive or inconclusive;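 also: plate controls were enzyme without inhibitor for no effect and buffer without enzyme for full effect; nearly all actives have a fitted effect of over 40% in size; top concentration of the series not given in the record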
#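 Detergent-free condition (0.00005% Triton X-100) in acetate buffer pH 5.5 with DTT. 1.5 nM enzyme and compound were pre-mixed 15 min, then 2 uM Z-FR-AMC substrate added; reaction progress from fluorescence change between first and third reads (60 s).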
# MARV entry inh: qHTS for inhibitors of binding or entry into cells for Marburg Virus; Potency, µM (doses to about 37.8 µM), without a hit: at the top dose activity change, negative = inhibition, most hits filed as inhibitors; AID 540276, 2011; 300,000 compounds, 1.8% hits; Marburg virus pseudotyped entry inhibition, cell reporter; control for the full effect not named in the record; about a third of the inactives were read at about 46 µM; active = well fitted inhibition curve with a large enough effect; inconclusive = small, poorly fitted or top-dose-only effect, or effect the other way; inactive = flat fitted curve, though single readings scatter; tested in HEK293 cells; about a fifth of its hits are not listed in these tables; also: % is scaled to controls: 0 for no effect and ±100 for the full control effect; luciferase read-out
# * hit, by the source's call; ? = inconclusive; / = not tested or not shown; & = joins results of further samples; [ ] = dose if it differs, or a comment. Unless noted, calls follow the shape of the dose curve; as a rule, active means well fitted rising curve with a large enough effect; inconclusive means small, poorly fitted or top-dose-only effect; inactive means no such curve, though single readings can be large or run the other way. Potency is read from the fitted curve at half-maximal effect.
SMILES,Cruzain Triton,NS1 inh,RE007 growth inh,StopGo reporter,SARS PLP yeast,LASV entry inh,Cruzain noTriton,MARV entry inh
Cc1nc(C(=O)NCC(=O)c2ccccc2)c(C(F)(F)F)o1,/,2%,-4%,19%,0%,23%[46.1 µM],/,9%[46.1 µM]
Cn1c(=O)n(C)c2cc(/C=N/NC(=O)c3cc4cc(Br)ccc4o3)ccc21,/,-3%,-9%,-18%,0%,-1%,/,?
CC1(C)COC(c2cccn2Cc2ccc(F)cc2Cl)=N1,-5.0%,1%,-1%,-13%,-4%,-28%,0%,3%
Cc1cccc(-c2cc(NC(=O)COc3ccccc3F)n(-c3ccccc3)n2)c1,2.6%,/,/,0%,/,?,-4%,/
CC(C)Cc1ccc(C(C)C(=O)Nc2nccs2)cc1 (stereo not given),-4.5%,-5%,-2%,/,-7%,-22%,25µM*,?
Nc1cc(N)nc(SCC(=O)N2CCc3ccccc32)n1,-1.5%,21%,-14%,26%,7%,9%,?,22%
Cn1cc(CCCC(=O)NCc2ccccc2)c2ccccc21,/,-11%,-2%,1%,0%,?,/,?
O=C(N/N=C/c1ccc([N+](=O)[O-])cc1)c1ccccc1OCc1ccccc1,/,-2%,-5%,0%,0%,-23%,/,11%
Cc1cc(C)cc(NC(=O)C2CCN(S(=O)(=O)c3c(C)n[nH]c3C)CC2)c1,1.5%,-10%,-12%,?,-2%,1%,-2%,12%
CC1Cc2ccccc2N1C(=O)CN1C(=O)C(=O)N(Cc2ccccc2)C1=O (stereo not given),3.7%,0%,30%,-21%,3%,4%,?,22%
COc1ccc(C2C(C(C)=O)=C(O)C(=O)N2c2nccs2)c(OC)c1 (stereo not given),/,8%,11%,-4%,1%,/,/,/
O=C(NCCCCNC(=O)c1cccs1)c1cccs1,-2.6%,6%,-9%,-13%,-8%,13%,-5%,?
COC(C(=O)Nc1ccc(F)c(F)c1)c1ccccc1 (stereo not given),/,/,-6%[3.69 µM],-8%,/,10%,/,4%
CCC(C)Nc1nc2ccccc2n2c(C)nnc12 (stereo not given),/,-5%,-5%,-13%,0%,/,/,/
CCOc1ccc(CN(C)CC(=O)Nc2ccc3c(c2)CCC3)cc1OC,/,/,-8%,-22%,0%,-11%,/,0%[14.2 µM]
CC1(C)COC(/C=C/c2cccc([N+](=O)[O-])c2)=N1,/,-61%,-16%,25µM*,-6%,?,/,?
CCN(C(=O)c1sc2cc(OC)ccc2c1Cl)c1ccccc1,-7.9%,/,/,-23%,/,?,-11%,?
CCOc1ccc(OCC)c(Nc2nc3ccccc3c3nnc(C)n23)c1,-1.6%,/,/,6%,/,19%[46.1 µM],-9%,/
O=C(CC1CCCC1)Nc1ccc(Br)cc1,/,-12%,-2%,37%[activator],-6%,?,/,?
NC(=O)COC(=O)CC12CC3CC(CC(C3)C1)C2,/,-6%,21%,3%,-4%,9%,/,13%[46.1 µM]
Cn1c(SCC(=O)Nc2ccc(C(N)=O)cc2)nnc1-c1cccs1,/,8%,7%,1%,9%,?,/,-16%[46.1 µM]
CCNc1nc(NC(C)(C)C)nc(SC(C(C)=O)C(C)=O)n1,-5.4%,-19%,6%,?,-8%,-11%,1%,-2%
COc1cccc(NC(=O)c2ccc(N3C(=O)C4CC=C(C)CC4C3=O)cc2)c1 (stereo not given),/,-2%,-5%,?,0%,/,/,/
CCCC1=C(C(=O)OCC)C2(C(=O)Nc3ccccc32)C(C#N)=C(N)O1 (stereo not given),2.5%,6%,-12%,-26%,9%,-14%,4%,-21%
CCN(C(C)=O)c1cccc2ccccc12,2.6%,6%,12%,-19%,3%,0%,0%,-5%

# The results go on:
SMILES,Cruzain Triton,NS1 inh,RE007 growth inh,StopGo reporter,SARS PLP yeast,LASV entry inh,Cruzain noTriton,MARV entry inh
COc1ccc(S(=O)(=O)N(C)C)cc1NC(=O)[C@H](Cc1ccccc1)N1C(=O)c2ccccc2C1=O,-3.9%,?,-5%,33%[activator],5%,2%,9%,-1%
O=C(CN1CCN(C(=O)c2ccccc2)CC1)Nc1ccc(Cl)cc1F,/,-14%,-20%,5%,14%,?,/,6%[46.1 µM]
COc1ccc(NC2=NCC(=O)N2Cc2cccs2)cc1,6.3%,-4%,-15%,11%,1%,-5%,-2%,-20%
Cc1ccc(NC(=O)CN(C)S(=O)(=O)c2cccc3cccnc23)c(C)c1,0.0%,0%,-13%,-5%&7%,0%,-12%,8%,4%&10%[46.1 µM]
COc1ccc(-c2cc(C(=O)NCC(c3ccccc3)N(C)C)c3ccccc3n2)cc1OC (stereo not given),/,-2%,-12%,-10%,0%,?,/,?
COc1ccc(-c2nc(CS(=O)CC(=O)NCc3ccc(Cl)cc3)c(C)o2)cc1 (stereo not given),-8.0%,8%,5%,-18%,6%,/,?,/
COc1cc(/C=N/OCC(=O)Nc2ccc(OC(F)F)cc2)ccc1OCc1ccccc1,-6.9%,4%,21%,0%,-4%,?,-8%,7.1µM*
CCOC(=O)Cc1ccc(NC(=O)c2ccccc2Br)cc1,/,-7%,19%,45%[activator],-2%,/,/,/
CC1CC(=O)Nc2ccccc2S1(=O)=O (stereo not given),-0.6%,0%,13%,-4%,/,13%,7%,7%
COc1ccc(NC(=O)c2nnn(Cc3cccc(F)c3)c2N)c(OC)c1,7.6%,-1%,-4%,-10%,3%,/,-12%,/
Cc1ccc(NC(=O)CN(C)C(=O)Cc2ccc(Cl)cc2Cl)cc1,/,9%,-5%,-18%,-3%,?,/,?
O=C(CCCCCN1C(=O)c2ccccc2C1=O)NC1CCCC1,-0.3%,-17%,-6%,-23%,0%,-1%,-3%,?
COc1ccc(C2C(C(=O)c3sc(C)nc3C)=C(O)C(=O)N2CCN(C)C)cc1OC (stereo not given),2.1%,0%,-1%,-8%,-4%,3%,-10%,15%
CCOC(=O)c1sc(NC(=O)c2cc(-c3ccc(F)cc3)on2)c(C(=O)OCC)c1C,-0.8%,/,/,-20%,/,2%[46.1 µM],1%,-9%[46.1 µM]
COc1cccc(/C=C/C(=O)Nc2ccc(OC)nc2)c1,-5.1%,-43%,-9%,6%,-48%,?,-8%,8%
Cc1cccc(OCC(=O)Nc2ccc(N3CCN(C(=O)c4ccco4)CC3)cc2)c1,3.0%,-3%,-21%,16µM*,2%,?,8%,?
Cc1ccc2[nH]c(=O)c(-c3nc4cc(C)ccn4c3NCc3ccco3)cc2c1,-2.2%,-13%,-6%,-8%,3%,5%,-8%,-9%
Cc1ccc(NC(=O)CN(C)C(=O)COC(=O)/C=C/c2cccs2)cc1,/,/,-8%,-8%,-3%,3%,/,-14%[46.1 µM]
CCN(CC(=O)Nc1cccc(OC)c1)C(=O)C1CCN(C(=O)Nc2ccccc2)CC1,0.6%,-4%,20%,0%,-2%,0%,7%,2%
CCOc1ccc(C(=O)Nc2ccc3c(c2)OCCO3)cc1Br,-9.2%,/,/,43%[activator],/,2%[46.1 µM],8%,/
CC1CC(C)(C)NC(=S)N1CC(=O)N(C)Cc1ccccc1 (stereo not given),0.4%,0%,1%,3%,?,?,-8%,-2%
CCC(C)NCCCCOc1ccc(Br)cc1 (stereo not given),-0.7%,0%,-13%,-15%,1%,-1%,1%,?
CC(C)COc1ccc(-c2nnc(-c3ccco3)o2)cc1,-5.2%,-116%,-11%,-35%,-10%,7.3µM*,9%,?
Cc1cc(C)c(NC(=O)Cn2c(=O)n(-c3ccc(CC(=O)NCC4CCCO4)cc3)c(=O)c3ccccc32)c(C)c1 (stereo not given),-1.6%,/,11%,3%&-19%,1%,-12%[46.1 µM],9%,?
O=C(c1cscn1)N1CCCC(N2CCN(c3ccc(F)cc3)CC2)C1 (stereo not given),/,5%,-2%,12%,3%,-5%,/,6%

# (more compounds)
SMILES,Cruzain Triton,NS1 inh,RE007 growth inh,StopGo reporter,SARS PLP yeast,LASV entry inh,Cruzain noTriton,MARV entry inh
O=C(Cn1c(NCCCO)nc2ccccc21)c1ccc([N+](=O)[O-])cc1,/,-3%,-13%,-9%,-2%,/,/,/
COc1ccc(Cc2nnc(Nc3ccc(C)cc3)o2)cc1OC,/,-66%,0%,-3%,-2%,/,/,/
CCn1c(SCC(=O)c2c[nH]c3ccccc23)nnc1-c1cccs1,-1.3%,-9%,1%,-22%,-3%,?,-18%,?
Cc1cc(C)cc(NC(=O)c2sc3nc4n(c(=O)c3c2C)N=C(c2ccccc2)CS4)c1,1.4%,/,/,-5%,/,23%[46.1 µM],-9%,/
CCc1cccc(NC(=O)Cn2c(=O)oc3cc(S(=O)(=O)N4CCOCC4)ccc32)c1,-1.9%,?,0%,?,8%,/,-2%,-3%
CCOc1ccc(NC(=O)Cn2c(=O)nc(-c3ccccc3)c3ccccc32)cc1,0.7%,/,/,0%,/,0%[46.1 µM],-3%,/
O=C(c1cc2sccc2n1Cc1ccc(F)cc1)N1CCc2ccccc21,-5.2%,12%,2%,6%,-8%,9%,25µM*,?
CCCC(=O)NC(C)c1nc2ccccc2n1C (stereo not given),1.3%,6%,8%,-10%,3%,/,-6%,/
CN(C)c1ccc(CN(C(=O)C2COc3ccccc3O2)C2CCS(=O)(=O)C2)cc1 (stereo not given),2.2%,19%,9%,10%,4%,32%[14.3 µM],7%,-12%
CCOCCCNC(=O)C(c1ccccc1)N(Cc1ccc2c(c1)OCO2)C(=O)c1ccc(NC(C)=O)cc1 (stereo not given),-2.4%,/,/,-6%,/,?,?,?
CCN(CCn1cccn1)C(=O)c1cc(COc2ccc(F)cc2Cl)on1,/,-9%,-8%,-2%,-1%,/,/,7%[46.1 µM]
